Anthrax LT inh – qHTS Assay for Anthrax Lethal Toxin Internalization. Cells, anthrax lethal toxin internalization, FRET ratio (460/530). Potency, µM (series often up to 40 µM), for inactives: at the highest dose activity change, negative = inhibition, usual class: inhibitors. hit rate 0.67% among 70,000. AID 912, 2007; active = well fitted falling ratio curve with the 530 nm signal flat; inconclusive = other ratio curves, or a change in one channel alone; inactive = flat curves in the ratio and both channels; the % refers to the ratio; further: on the % scale 0 is the no-effect control and ±100 the full control effect; nearly all actives have a fitted effect of over 50% in size; tested in ME-180 cells; beta-lactamase reporter
SmPrx2 inh – Schistosoma Mansoni Peroxiredoxins (Prx2); Schistosoma mansoni peroxiredoxin 2 (Prx2); S. mansoni Prx2 activity coupled to TGR/GSH (TGR is thioredoxin glutathione reductase), NADPH fluorescence loss, qHTS; some inactives read as strong as hits; Potency, µM; hit rate 0.07% among 65,000; AID 448, 2006; active means full or partial inhibition curve with a strong effect at the top dose; inconclusive means weaker partial or single-point curve; inactive means no accepted curve; further: series up to 57 µM; many of its hits are not listed in these tables
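Prx2 activity was followed as the loss of NADPH fluorescence (ex 365/em 450 nm), read every 30 sec for 8 min after H2O2 start. The enzyme mix (50 nM Prx2, 25 nM TGR, GSH, NADPH; pH 7.4 phosphate buffer) was incubated with compound for 15 min at room temperature first.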
An asterisk follows results filed as active; ? = inconclusive; . = not tested or not shown; & = joins results of further samples; [ ] = dose if it differs, or a comment. Potency means the concentration at half of the fitted maximal effect.

SMILES | Anthrax LT inh | SmPrx2 inh
COc1ccc(CCN2C(=O)c3[nH]nc(-c4ccccc4O)c3C2c2cccc(O)c2)cc1OC (stereo not given) | -26% | >57
Cc1ccc(CNc2nc3ccccc3n3nnnc23)cc1 | 12% | >57
Cc1ccc(N(C(=O)CC2NC(=O)NC2=O)C2(C(=O)NC3CCCC3)CCCCC2)cc1 (stereo not given) | -10% | >57
CC(C)OCCCNC(=O)c1c(N)n(CC2CCCO2)c2nc3ccccc3nc12 (stereo not given) | ? | >57
O=C(Nc1cccnc1)c1cc(-c2ccc(Br)cc2)on1 | -4% | >57
CCOC(=O)Cn1c(=O)n(C2CCCC2)c(=O)c2ccccc21 | ? | >57
Cc1c(O)c(=O)ccn1C | 5%[8 µM] | .
Cc1ccc2c(c1)C1CCCC3C1N2CC(=O)N3Cc1ccccc1 (stereo not given) | -16% | .
Cc1nn(C)c(C)c1S(=O)(=O)NC1CCCc2ccccc21 (stereo not given) | 0% | >57
CN(CCc1ccccn1)Cc1ccc(Cl)cc1 | -1% | >57
O=C(Nc1cccnc1)c1ccc(CN2CCc3ccccc3C2)cc1 | ? | .
S=C(Nc1ccc2c(c1)Cc1ccccc1-2)Nc1ccc2c(c1)Cc1ccccc1-2 | -1%[8 µM] | >57
CN(C)C(=O)Oc1ccc(Cl)c2ccccc12 | ? | >57
O=C(Nc1cccc(-c2cn3cccnc3n2)c1)c1ccco1 | 0% | >57
COc1ccc(-n2c(=O)c3c4c(sc3n(CC(=O)NCc3ccco3)c2=O)CCC4)c(OC)c1 | 16% | >57
COc1ccc(-n2nc3ccc(NS(C)(=O)=O)cc3n2)cc1Cl | 2% | .
CCOC(=O)c1c(C)c(C(=O)Nc2cc(OC)ccc2OC)c(C)n1CC | -26% | >57
O=C(Cc1ccccc1)Nc1ccc(C(=O)O)cc1 | 6% | >57
CCOC(=O)CN1C(=O)NC(C)(c2ccc(OC(F)F)cc2)C1=O (stereo not given) | -3% | >57
CCOc1cc(C2NCc3ccccc3-n3cccc32)ccc1O (stereo not given) | ? | >57

Part of the list above in order of formula weight, ascending:
SMILES | Anthrax LT inh | SmPrx2 inh
O=C(Cc1ccccc1)Nc1ccc(C(=O)O)cc1 | 6% | >57
O=C(Nc1cccnc1)c1cc(-c2ccc(Br)cc2)on1 | -4% | >57
COc1ccc(-n2c(=O)c3c4c(sc3n(CC(=O)NCc3ccco3)c2=O)CCC4)c(OC)c1 | 16% | >57

Remaining list, next part
SMILES | Anthrax LT inh | SmPrx2 inh
O=S(=O)(NCc1ccccc1Br)c1cccs1 | -3% | >57
CSc1nc(N2CCOCC2)c2c3c(sc2n1)CCCC3 | -23% | >57
CN(C(=O)CN(CCO)CC(=O)N(C)C(C)(C)Cc1ccccc1)C(C)(C)Cc1ccccc1 | -3%[3.58 µM] | >57
CC1CCC(NC(=O)Cn2ncc3ccccc32)CC1 (stereo not given) | -11% | >57
c1ccc2c(N3CCCC3)nc(-c3ccncc3)nc2c1 | 18% | >57
O=c1cc(N2CCOCC2)[nH]c(=O)n1Cc1ccc(F)cc1 | 18% | >57
C/C=C\C1=C(CO)C(=O)[C@@H]2OC2C1=O (stereo not given in full) | 0%[1.6 µM] | .
CCOC(=O)C(C)Sc1nnc(Cn2c(=O)sc3ccccc32)n1-c1ccccc1 (stereo not given) | ? | >57
COc1cccc2c1N1C(=O)c3c(C(=O)O)cccc3C1CC2(C)C (stereo not given) | 0% | >57
Cc1noc(C)c1-c1cncnc1N1CCN(C)CC1 | -5% | >57
O=C(CSc1nccn1-c1ccccc1)Nc1ccc2c(c1)OCO2 | 3% | >57
CCCCCOC(=O)Nc1nnc(CCC)s1 | -18% | .
CCN1CCN(c2nc3ccccc3nc2C(C#N)C(=O)OC2CCCCC2)CC1 (stereo not given) | -7% | >57
CC1(c2ccc3c(c2)OCO3)NC(=O)N(CC(=O)Nc2ccc(N3CCOCC3)cc2)C1=O (stereo not given) | -1% | >57
COCCNC(=O)c1ccc(Cn2c(=S)[nH]c3cc4c(cc3c2=O)OCO4)cc1 | ? | >57
C=CCn1c(C)cc(C(=O)CSc2nnc(Cc3ccccc3)o2)c1C | ? | >57
COCCn1cnnc1SCC(=O)Nc1ccccc1C(=O)Nc1ccc2c(c1)OCO2 | 15% | >57
CS(=O)(=O)N1CCCC(C(=O)NCc2ccccn2)C1 (stereo not given) | 10% | >57
CC1(C)CN=C(Nc2ccc(F)c(F)c2)S1 | -2% | >57
CCC(=NC(C)c1ccccc1)c1c(O)n(C)c(=O)n(C)c1=O (stereo not given) | 7% | >57
FC(F)(F)c1ccccc1-c1cc(N2CCNCC2)ncn1 | 9% | >57
Cc1nc2cc(C(F)(F)F)ccc2n1C1CCN(CC(=O)N2CCOCC2)CC1 | 1% | >57
Brc1ccc(-c2nnc3ccc(N4CCN(c5ccccc5)CC4)nn23)cc1 | -15% | .
CCCOC(=O)c1sc2nc3c(cc2c1N)C(=O)CCC3 | 0% | >57
COc1cccc(C(=O)Nc2cccc(OC(C)=O)c2)c1 | 5% | >57
OCCOCCn1c2ccccc2c2ccccc21 | -4% | >57
Cc1[nH]c(=O)[nH]c(=O)c1S(=O)(=O)Nc1ccc(Oc2ccccc2)cc1 | 9% | >57
COc1cccc(-n2c(SCC(=O)N3CCOCC3)nc3c([nH]c4ccccc43)c2=O)c1 | 5% | >57
COc1cc(C[C@H](C)N)c(OC)cc1I | -3%&1% | >57&>57
COCc1cc(=O)n2[nH]c(-c3ccccc3)cc2n1 | -1% | .
O=C(NCc1cccs1)C1CCCN1C(=O)NC1CCCCC1 (stereo not given) | 6% | >57
O=C(Nc1ccccc1NC(=O)c1ccco1)c1ccco1 | -4% | .
CCCc1[nH]nc2c1C(c1ccc(OC)c(Cn3nnc4ccccc43)c1)C(C#N)=C(N)O2 (stereo not given) | ? | >57
FC(F)(F)c1ccccc1-c1ccc2ncnc(NCCN3CCOCC3)c2c1 | -4% | >57
O=S(=O)(c1cccc(S(=O)(=O)N2CCC(N3CCCCC3)CC2)c1)N1CCOCC1 | -6% | >57
COc1ccc(C(=O)N2CCN(c3ccc(C)cc3)CC2)cc1OC | -2% | >57
COc1ccc(-n2c(=S)[nH]c3cc(C(=O)NCCCN4CCCC4=O)ccc3c2=O)cc1 | -21% | >57
COC(=O)C1(C(=O)OC)Sc2ccccc2C1=O | -14% | >57
Cc1ccc(CCNC(=O)CC2Oc3ccc(C)cc3NC2=O)cc1 (stereo not given) | 8% | >57
CC(C)CC(NS(=O)(=O)c1ccc2c(c1)oc(=O)n2C)C(=O)N1CC=C(c2ccccc2)CC1 (stereo not given) | ? | >57

Compound profiles, from the list above.
O=C(Nc1cccc(-c2cn3cccnc3n2)c1)c1ccco1 across the screens: Anthrax LT inh: 0%; SmPrx2 inh: >57
COc1cccc(-n2c(SCC(=O)N3CCOCC3)nc3c([nH]c4ccccc43)c2=O)c1 across the screens: Anthrax LT inh: 5%; SmPrx2 inh: >57

Additional compounds.
SMILES | Anthrax LT inh | SmPrx2 inh
Cc1nn(-c2ccccc2)c2c1/C(=N/O)CC(C)(C)C2 | ? | >57
O=C(Cn1nc(C(F)(F)F)c2c1CCCC2)NCc1ccco1 | -8% | >57
Cc1ccc(-n2c(Cc3cccn3C)nnc2SCC(=O)NCc2ccco2)cc1 | 0% | >57
Cc1cccc(NC(=O)c2oc3c(c2C)C(=O)CC(C)(C)C3)n1 | -20% | >57
COc1ccc(OCCOC(=O)Nc2ccccc2)cc1 | ? | .
Cn1cccc1C(=O)N1CCC2(CCCN(c3ccccc3)C2)CC1 | 23% | >57
COc1ccc(NC2=NC3(CCCCC3)N=C(N)N2)cc1 | ? | >57
O=C(COC(=O)C1(c2ccc(F)cc2)CCCC1)N1CCN(C(=O)c2ccco2)CC1 | 3% | >57
COc1ccc(C(=O)N2CCC3(CC2)CN(c2ccccn2)C3)cc1 | ? | >57
COCCNC(=O)CSc1nc2ccccc2c(=O)n1CC1CCCO1 (stereo not given) | ? | >57
O=c1[nH][nH]c(=O)c2cc(N3CCCC3)ccc12 | 0% | >57
C=CCN1CCc2c(cc(O)c(O)c2Br)[C@H](c2ccccc2)C1 | 10% | >57
CCN1C(=O)CC(N2CCC(Nc3ccc(OC)cc3)CC2)C1=O (stereo not given) | 12% | >57
COc1ccc2[nH]cc(CCNc3ncnc4ccc(-c5ccc6c(c5)OCO6)cc34)c2c1 | ? | >57
O=[N+]([O-])c1ccc(S(=O)(=O)Cc2ccccc2)c2nonc12 | 19%[8 µM] | .
COc1ccc(NC(=O)N2CCn3c2nc2ccccc23)cc1 | -23% | >57
Cn1c(=O)[nH]c(=O)c2c1nc(N1CCCC1)n2CC(O)COc1ccccc1 (stereo not given) | 2% | >57
CCOC(=O)c1ccc(NC(=O)Cn2cccc2)cc1 | 12% | >57
CN=C(NC)SC1CC(=O)N(c2ccccc2)C1=O (stereo not given) | 12% | .
COc1ccc2nc3oc(C(=O)N4CCN(c5ccccc5F)CC4)cc3cc2c1 | 10% | >57

No new results follow: an excerpt of the list.
SMILES | Anthrax LT inh | SmPrx2 inh
Cc1nn(-c2ccccc2)c2c1/C(=N/O)CC(C)(C)C2 | ? | >57
O=C(Cn1nc(C(F)(F)F)c2c1CCCC2)NCc1ccco1 | -8% | >57
Cc1ccc(-n2c(Cc3cccn3C)nnc2SCC(=O)NCc2ccco2)cc1 | 0% | >57
Cc1cccc(NC(=O)c2oc3c(c2C)C(=O)CC(C)(C)C3)n1 | -20% | >57
COc1ccc(OCCOC(=O)Nc2ccccc2)cc1 | ? | .
Cn1cccc1C(=O)N1CCC2(CCCN(c3ccccc3)C2)CC1 | 23% | >57
COc1ccc(NC2=NC3(CCCCC3)N=C(N)N2)cc1 | ? | >57

(list continues)
SMILES | Anthrax LT inh | SmPrx2 inh
CCCCOc1ncnc2c1[nH]c1ccc(F)cc12 | 12% | >57
O=C(Nc1cccc(C(=O)Nc2ccc(S(=O)(=O)O)c3cc(S(=O)(=O)O)cc(S(=O)(=O)O)c23)c1)Nc1cccc(C(=O)Nc2ccc(S(=O)(=O)O)c3cc(S(=O)(=O)O)cc(S(=O)(=O)O)c23)c1 | ? | >57&>26
CCOC(=O)C(NCc1ccccn1)(NC(=O)c1cccnc1)C(F)(F)F (stereo not given) | ? | >57
Cc1ccc2c3c1C1(C(=O)N3C(C)(C)CC2C)C(C#N)=C(N)Oc2cc(O)ccc21 (stereo not given) | -19% | >57
O=C(CSc1n[nH]c(-c2ccccc2O)n1)N1CCCc2ccccc21 | ? | >57
Cc1ccc(C2CC(=O)Nc3cc4c(cc32)OCCO4)s1 (stereo not given) | ? | >57
O=C(NCc1ccco1)C(c1ccccc1F)N(Cc1cccnc1)C(=O)Cn1nnc2ccccc21 (stereo not given) | -6% | >57
Cc1nn2c(-c3ccccc3)nnc2c2ccccc12 | -1% | >57
CCCS(=O)(=O)N1CCCC(C(=O)NCc2ccco2)C1 (stereo not given) | 13% | >57
CCOC(=O)CSc1nnc(CSc2nc3sc4c(c3c(=O)[nH]2)CCC4)n1C | ? | >57
CC(C)CCN1CC(C(=O)NC(C)C)CC1=O (stereo not given) | -21% | >57
COC(=O)C1=CN(C(C)C)C=C(C(=O)OC)C1c1cccc(OC)c1 | ? | .
CN(C)CCn1c(CO)nc2c1c(=O)n(C)c(=O)n2C | 2%[8 µM] | >11
N#CCCCN1C(=O)C(O)(CC(=O)c2ccc3c(c2)OCCO3)c2ccccc21 (stereo not given) | 2% | >57
CCS(=O)(=O)N1CCC(C(=O)NCc2cccnc2)CC1 | 12% | >57
CCOC(=O)N1CC=C2C(C#N)=C(N)C(C#N)(C#N)[C@H](c3ccc(OCC)c(OCC)c3)[C@H]2C1 | ? | >57
Cc1cc(Oc2ccccc2)nc(SCC(N)=O)n1 | 3% | >57
CC(=O)c1cccc(S(=O)(=O)N(Cc2cc3cc4c(cc3[nH]c2=O)OCCO4)CC2CCCO2)c1 (stereo not given) | -2% | >57
O=C(Nc1nccs1)c1cc(S(=O)(=O)N2CCCCC2)ccc1Cl | 12% | >57
CCn1c(SCc2cccc(C(F)(F)F)c2)nnc1-c1ccco1 | . | >57
Cc1nc(Cl)sc1C(=O)O | 5% | >57
CCC(C)NC(=O)c1cc(-c2ccccc2O)on1 (stereo not given) | 7% | >57
N[C@@H](Cc1c[nH]c2ccccc12)C(=O)NCC(=O)O | -3% | >57
Cc1cccc(OCc2nnc(SCC(=O)N(C(C)C)C(C)C)n2Cc2ccco2)c1C | -14% | >57
CCc1nnc2n1N=C(c1ccc(-c3ccc(Cl)cc3Cl)o1)CS2 | -4% | >57
CCOC(=O)c1sc(NC(=O)CSc2nnnn2-c2ccc(C)c(C)c2)nc1C | -6% | >57
C[C@@H]1O[C@H](O[C@@H]2C=C3CC[C@H]4[C@@H](CC[C@]5(C)[C@@H](c6ccc(=O)oc6)CC[C@]45O)[C@@]3(C)CC2)[C@@H](O)[C@H](O)[C@@H]1O | ? | >57
CN1C(=O)N(C)C(=O)C2(Cc3c(ccc4ccccc34)N(C)C2)C1=O | 4% | >57
O=C(O)c1cc(-c2cccnc2)nn1-c1ccccn1 | -2% | >57
COC(=O)c1ccc2c(c1)N(Cc1ccccc1F)C(=O)c1ccccc1S2=O (stereo not given) | 1% | >57
CCc1ccc(N2CC(C(=O)NC3=NCCS3)CC2=O)cc1 (stereo not given) | 7% | >57
CCOCCCNC(=O)C1CCN(c2cc(C)nc3c(-c4ccc(OC)c(OC)c4)c(C)nn23)CC1 | 11% | >57
CCCNC(=O)CSc1nnc(-c2ccco2)n1C | ? | >57

An excerpt (hit frequency here may not be typical).
